CapD inh = CapD enzyme inhibition. z-score (no concentration beside the values). purified CapD enzyme, fluorescence intensity read-out; stronger effect = lower value; some hits fall short of the stated cut. actives 0.23% (n = 140,000);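 active = z-score under -4 in either of two replicates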;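 note: stock transfer was 100 nL into about 40 µL; score is relative to mean and spread of the plate; one replicate is shown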
AID504770 = growth inhibitors of E. coli YBA685 in a screen for V. cholerae RctB (chromosome II replication) inhibitors; actives 0.27% (n = 130,000); z-score (test concentration not listed); E. coli YBA685 rctB-dependent plasmid, OD600 growth, 3 h; stronger effect = lower value; AID 504770;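 active = z-score under -2 on both plates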;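 note: wells of about 30 µL received 100 nL stock; score is relative to mean and SD of the test wells; the first replicate is given; strong numbers were not always called active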
* hit, by the source's call; . = not tested or not shown; & = joins results of further samples.

SMILES | CapD inh | AID504770
Cc1cc(C)n(-c2nncc(-c3ccccc3)n2)n1 | -1.8 | 0.55
CCCn1cnc2cc(NCc3ccncc3)ccc21 | 3.3 | -1.2
COC(=O)c1ccc(Oc2c(F)c(F)nc(F)c2F)cc1 | 0.11 | -1.5
COc1cccc(-n2c(SCC(=O)NCCc3ccc(S(N)(=O)=O)cc3)nc3n[nH]c(C)c3c2=N)c1 | 0.02 | .
O=C(NCCCn1ccnc1)c1cc2nc3c(c(C(F)(F)F)n2n1)CCc1ccccc1-3 | -1.2 | .
N#CCN(CC#N)C(=O)N1CCOCC1 | . | -0.65
O=c1cc(N2CCCCC2)nc2n1CCCS2 | 1.3 | -0.1
CSc1sc(C(=O)Oc2ccccc2)c2c1C(=O)CC(C)(C)C2 | -0.04 | -0.3
Cc1cc(NC(=O)c2ccc(CN3CCN(Cc4ccccn4)CC3)cc2)ccc1Cl | . | 0.7
CCc1ccc(NC(=O)C2c3ccccc3C(=O)N(CCOC)C2c2c[nH]c3ccccc23)cc1 (centres undefined) | -0.015 | 0.35
CCOc1ccccc1C(=O)N(CN1CCCC1=O)c1ccccc1 | . | 0.8
O=C(COC(=O)c1ccccc1N1C(=O)C2CC=CCC2C1=O)c1ccc([N+](=O)[O-])cc1 (centres undefined) | 0.055 | .

Continued, starting with the last three of the part before.
SMILES | CapD inh | AID504770
CCc1ccc(NC(=O)C2c3ccccc3C(=O)N(CCOC)C2c2c[nH]c3ccccc23)cc1 (centres undefined) | -0.015 | 0.35
CCOc1ccccc1C(=O)N(CN1CCCC1=O)c1ccccc1 | . | 0.8
O=C(COC(=O)c1ccccc1N1C(=O)C2CC=CCC2C1=O)c1ccc([N+](=O)[O-])cc1 (centres undefined) | 0.055 | .
O=C(c1ccc2c(c1)OCCO2)N(c1ccccn1)C1CCCCC1 | . | 0.7
CC(C)c1ccc(C(=O)OCC(=O)NCc2ccc(Cl)cc2)cc1 | 0.49 | 0.4
CCN1c2ccccc2-c2c(ssc2=S)C1(C)C | 0.17 | .
FC(F)(F)c1cc(-c2ccc(Cl)cc2)nc2ccnn12 | 0.11 | -0.15
COc1cc(OC)cc(C(=O)NCC(=O)OCC2COc3ccccc3O2)c1 (centres undefined) | . | -0.3
O=C(OC1Cn2c(=O)ccc(=O)n2C1)c1ccccc1Cl | . | 0.05
COc1cc(S(=O)(=O)N2CCNCC2)ccc1-n1cnnn1 | 0.29 | -0.3
CC(c1ccccc1)N1CCC(CNC(=O)Nc2ccc(Cl)cc2)C1 (centres undefined) | 0.2 | -0.55
COc1ccc2nc(Sc3ccc(C(F)(F)F)cc3[N+](=O)[O-])[nH]c2c1 | -0.21 | .
COc1ccccc1C1CCN(C(=O)Nc2ccccc2C#N)CC1 | -0.055 | 1.4
C=CCn1c(C(Cc2ccccc2)NC(=O)c2ccccc2)nc2ccccc21 (centres undefined) | 0.28 | -0.5
O=C(NCCOc1ccccc1)N(Cc1ccco1)Cc1ccccc1F | -0.75 | .

In another format: 6 of the compounds above.
Second line of a record: CapD inh | AID504770
O=c1cc(N2CCCCC2)nc2n1CCCS2
    1.3 | -0.1
CSc1sc(C(=O)Oc2ccccc2)c2c1C(=O)CC(C)(C)C2
    -0.04 | -0.3
Cc1cc(NC(=O)c2ccc(CN3CCN(Cc4ccccn4)CC3)cc2)ccc1Cl
    . | 0.7
CCc1ccc(NC(=O)C2c3ccccc3C(=O)N(CCOC)C2c2c[nH]c3ccccc23)cc1 (centres undefined)
    -0.015 | 0.35
CCOc1ccccc1C(=O)N(CN1CCCC1=O)c1ccccc1
    . | 0.8
O=C(COC(=O)c1ccccc1N1C(=O)C2CC=CCC2C1=O)c1ccc([N+](=O)[O-])cc1 (centres undefined)
    0.055 | .

Remaining list, next part
SMILES | CapD inh | AID504770
COc1ccccc1N(C(=O)c1ccccc1O)C(C)C1CC1 (centres undefined) | . | 0.35
Cc1ccccc1-n1c(=S)sc2c1nc(SCC#N)n1c3ccccc3nc21 | -0.07 | .
COc1cc(OC)nc(CSCCNC(=O)Nc2ccc(Cl)cc2)n1 | -0.51 | .
CC(C)CNC(=O)C1CCN(c2ccc(S(=O)(=O)N3CCOCC3)cc2)CC1 | . | 0.05
CC1C(O)CC(c2ccccc2)NC1c1ccccc1 (centres undefined) | -0.035 | -0.85
COc1cc(C2Nc3c(cccc3C(F)(F)F)C3C=CCC32)cc(Br)c1OC (centres undefined) | -0.065 | .
c1ccc(-c2cc(N3CCCC3)nc3cc4c(cc23)OCCO4)cc1 | . | 0.15
COc1cccc(CSc2ccc(S(=O)(=O)N3CCOCC3)cc2C(=O)N2CC(C)CC(C)C2)c1OC (centres undefined) | -0.11 | .
CC1(C)CC(=O)C(C(C2=C(O)CC(C)(C)CC2=O)c2ccccc2)C(=O)C1 (centres undefined) | 0.33 | 0.85
CCC1CN(C(=O)NCc2ccccc2)c2ccccc2S1 (centres undefined) | -1.1 | -0.85
CCOC(=O)c1c(NC(=O)CCN2C(=O)c3ccccc3C2=O)sc2c1CCC(C)C2 (centres undefined) | -0.03 | .
CC(=O)O[C@H]1C[C@@H]2CC[C@@H]3[C@H](CC[C@@]4(C)[C@H]3C[C@H]([N+]3(C)CCCCC3)[C@@H]4OC(C)=O)[C@@]2(C)C[C@@H]1[N+]1(C)CCCCC1 | 0.32 | .
CCOC(=O)c1c(-c2ccco2)csc1NC(=O)COC(=O)Cn1[nH]c(=O)c2ccccc2c1=O | . | 0.2
O=C(CCCCCn1c(=S)[nH]c2ccc(Br)cc2c1=O)NCc1ccc2c(c1)OCO2 | -1.1 | .
CC(C)(C)Sc1ccccc1CN1CCN(CCOC(=O)NCc2ccc(-c3csnn3)cc2)CC1 | -0.34 | .
CC(=O)N1CCC(Nc2ccc3c(c2)CCN3S(C)(=O)=O)CC1 | 0.81 | .
Cc1cc(/C=C2/NC(=O)N(Cc3ccc(Br)cc3)C2=O)c(C)n1-c1ccc2c(c1)OCO2 | -0.48 | -0.5
O=C(NCc1ccc2[nH]c3c(c2c1)CCCC3)C1CC1 | 0.86 | -0.7
Cc1nc(C(F)(F)F)ccc1C(=O)Nc1ccccc1F | 0.33 | .
COc1ccc(OC)c(C2Nc3ccccc3NC3=C2C(=O)CC(c2ccc(OC)c(OC)c2)C3)c1 (centres undefined) | -0.57 | .
O=C(CSc1n[nH]c(=O)[nH]c1=O)Nc1ccc(SC(F)F)cc1 | . | 1.5
S=c1[nH]nc(C2CC2)o1 | . | 1.8
CC(C)OCCCNC(=O)c1ccc2c(=O)n(Cc3ccco3)c(SCC(=O)NC3CCCCC3)nc2c1 | -0.76 | .
CC(c1ccccc1)n1nnc2ccccc21 (centres undefined) | . | -1.3
COc1ccccc1N1CCN(c2nc3ccccc3n3c(C)nnc23)CC1 | 0.17 | -0.95
CCC(C)NC(=O)C1c2ccccc2C(=O)N1C(C)CCc1ccccc1 (centres undefined) | 0.02 | -0.2
CCCc1nc2cc(C)c(C)cc2nc1C | 1.2 | .
CNC(=O)CS(=O)(=O)c1cn(CC(=O)N2CCCC2)c2ccccc12 | 0.8 | -0.45
CC(=O)c1nnn(-c2cc(Cl)ccc2Cl)c1C | -0.14 | .
CCC(SC1=NCCS1)C(=O)Nc1ccccc1OC (centres undefined) | . | -0.35
Cc1[nH]n(-c2ccccc2)c(=O)c1Cc1c(Cl)cccc1Cl | 0.94 | -0.8
COc1ccc(Sc2nccc(-c3ccc(Cl)cc3)c2C#N)cc1 | 0.26 | .
CC1=NC(=O)/C(=C\c2ccc(Cl)cc2)N(C)N1c1ccccc1 | . | 0.3
CC(C)NS(=O)(=O)c1ccccc1I | -0.42 | 0.3
Cc1ccc(Sc2c(CS(=O)(=O)c3ccccc3)[nH]c3ccccc23)cc1 | 12 | 2.3
CC(C)OCCCNC(=O)c1ccc2c(=O)n(Cc3ccco3)c(SCc3ccc([N+](=O)[O-])cc3)nc2c1 | -0.67 | .

The final 4 records of the section above open the next one.
SMILES | CapD inh | AID504770
CC1=NC(=O)/C(=C\c2ccc(Cl)cc2)N(C)N1c1ccccc1 | . | 0.3
CC(C)NS(=O)(=O)c1ccccc1I | -0.42 | 0.3
Cc1ccc(Sc2c(CS(=O)(=O)c3ccccc3)[nH]c3ccccc23)cc1 | 12 | 2.3
CC(C)OCCCNC(=O)c1ccc2c(=O)n(Cc3ccco3)c(SCc3ccc([N+](=O)[O-])cc3)nc2c1 | -0.67 | .
COc1ccccc1NC(=O)c1sc2ncnc(N3CCCCC3)c2c1C | -0.89 | .
CCOC(=O)C1=C(C)N(C2CCCCC2)C(=O)C1 | . | -0.25
COc1ccccc1CNc1ccc(C(=O)N2CCN(C(C)=O)CC2)cc1S(=O)(=O)Nc1cccc(C(F)(F)F)c1 | 1.6 | .
COc1ccc(Cl)cc1S(=O)(=O)N1CCc2ccccc2C1CN1C(=O)c2ccccc2C1=O (centres undefined) | -1.4 | .
Cc1nc2cc(CCl)ccc2s1 | -0.66 | -0.85
COc1ccc(S(=O)(=O)NCCn2ccc3ccccc32)cc1 | 0.46 | 0.4
O=C(CSC1=NCCS1)NCc1ccco1 | . | 0.15
COc1ccc(C2=NN(C(C)=O)C(c3cn(-c4ccccc4)nc3-c3ccccc3)C2)cc1OC (centres undefined) | 0.27 | .
CCc1cccc(C)c1NC(=S)NCCC(=O)O | 0.58 | 1.9
Fc1ccc(CN2CCCCCC2)cc1F | 0.58 | 1.1
COc1ccc(Nc2cc(C(=O)N3CCc4ccccc4C3)c3ccccc3n2)c(OC)c1 | 1.2 | 0.25
CC(C)CC1(C)NC(=O)N(CC(=O)c2ccc(N(C)S(C)(=O)=O)cc2)C1=O (centres undefined) | . | 0.05
S=c1oc(-c2ccccc2)nn1CN1CCCCC1 | 4.5 | -0.75
CC(=O)Nc1ccc(C2N=C(c3cnccn3)NN2)cc1 (centres undefined) | -3.7 | -0.5
COc1ccc(Br)cc1S(=O)(=O)n1ccnc1 | 0.035 | 0.6
Cc1ccc(C(=O)O/N=C2\C(=O)N(c3ccccc3)c3ccccc32)cc1 | -0.11 | .
Cc1ccc(/C=N/NC(=O)C(c2ccccc2)c2ccccc2)o1 | . | -0.9
CCn1c(=O)c2c(=O)cc(N)[nH]c2n(Cc2ccccc2)c1=O | . | -1
CCN(CC)c1nc(NN)nc(Nc2ccc(C)c(Cl)c2)n1 | -0.14 | 0.05
CCOc1ccc(NCCC(=O)c2ccc(NS(C)(=O)=O)cc2)cc1 | -0.56 | 0.4
Cc1cc(C)nc(NS(=O)(=O)c2ccc(Nc3nc(-c4ccc(F)cc4F)cs3)cc2)n1 | -0.35 | .
CCn1c(O)c(/C=N/c2nc3ccccc3[nH]2)sc1=S | 0.2 | 0.85
O=C(c1cc2cc(Cl)ccc2o1)c1ccccc1Cl | -0.07 | .
CCOc1ccc(NC(=O)CCc2ccc(OC)cc2)cc1 | -0.31 | -0.15
O=C(Nc1ccc(S(=O)(=O)c2ccccc2Cl)cc1)c1ccc(F)cc1 | -0.23 | .
COCCn1nnnc1C(c1cc2c(C)ccc(C)c2[nH]c1=O)N1CCCc2ccccc21 (centres undefined) | . | -0.6
CC1(C)CC(=O)C2=C(C1)N(c1cccc(Br)c1)C(N)=C(C#N)C2c1ccsc1 (centres undefined) | 0.69 | .
CC1=C(C(=O)OC(C)C)C(c2cccnc2)C(C#N)=C(N)O1 (centres undefined) | 0.22 | .
Cc1nn(-c2ccccc2)c2sc(C(=O)NC(C)C)cc12 | 0.41 | -0.45
CC(C)NC(=S)N=Nc1c(O)n(C)c2ccccc12 | . | 0.1
CC1(C)Cc2cccc(OCCNS(=O)(=O)c3ccc(-n4cnnn4)cc3)c2O1 | -0.41 | 0.1
COc1cccc(C2c3c(oc4ccccc4c3=O)C(=O)N2CCO)c1 (centres undefined) | 0.17 | 0
CC1CCC2(CC1)NC(=O)N(Nc1ccc(S(=O)(=O)N3CCCC3)cn1)C2=O (centres undefined) | . | -0.15
CCCC(=O)N1c2ccccc2NC2=C(C(=O)CCC2)C1c1ccc(O)c(OC)c1 (centres undefined) | -1.5 | -0.55
CC(=O)Nc1nc(-c2ccc(Cl)c(Cl)c2)nc2c1c(=O)oc1ccccc12 | -0.54 | .
COC(=O)c1[nH]c(C(=O)OC)c(O)c1O | 0.17 | -0.85
NC(=O)c1c(C(F)(F)F)cccc1C(F)(F)F | -0.43 | .
CCOC(=O)c1cnc2c(Cl)c(Cl)ccc2c1NCCOC(=O)C(C)C | -0.07 | -1.1
CN(c1ccccc1)S(=O)(=O)c1ccc(I)cc1 | 0.14 | -0.05
COC(=O)c1c(C)oc2cc(Br)c(OCc3ccc([N+](=O)[O-])cc3)cc12 | -0.15 | .
COC(=O)c1ccc(N=C2SC(C(=O)Nc3ccc(C(=O)O)cc3)CC(=O)N2C)cc1 (centres undefined) | -0.14 | .
O=C1CN=C(c2ccccc2)c2cc(Cl)ccc2N1 | -0.45&-0.14 | .
Cc1ccc(NC(=O)CC(O)(C(F)(F)F)C(F)(F)F)cc1 | 1.1 | 1.4
Cc1noc(C)c1S(=O)(=O)NC1CCCc2ccccc21 (centres undefined) | -0.34 | -0.8
O=C(c1ccccc1)N1N=C(c2ccc([N+](=O)[O-])cc2)CC1(O)C(F)(F)F (centres undefined) | -1.7 | .
c1ccc(-c2cnc(CSc3ncnc4sccc34)o2)cc1 | . | -0.75
Cc1cccc2nc(Cn3ccccc3=O)cn12 | 0.03 | -1.4
CCCCN(C(=S)NC1CCCCC1)c1c(N)n(CCC)c(=O)[nH]c1=O | . | -2.1
CNC(=O)COC(=O)c1cccnc1Cl | 1.1 | -0.5
CCOC(=O)c1sc2nc(SCC(=O)NCc3ccco3)n(Cc3ccc(F)cc3)c(=O)c2c1C | -0.045 | .
Cc1ccc2c(cnn2C(=O)CCCC(=O)NC2CCCc3ccccc32)c1 (centres undefined) | 0.7 | 1.5
Nc1cccc(OCc2ccc(F)cc2)c1 | . | -0.05
CC1C(O)=C(c2ccc(F)cc2)C(=N)N1c1ccccc1 (centres undefined) | . | -0.25
Cc1ccc(NC(=O)c2cccn(OCc3ccccc3)c2=O)cc1C | -0.46 | -0.15
O=C(NCCc1ccccc1)N1c2ccccc2Sc2ccccc21 | -0.27 | -0.5
CC[n+]1c(/C=C/N(C)c2ccccc2)sc2ccc(OC)cc21 | 32 | 0.55
